NPYLR7 agonist: mosquito NPYLR7 agonism; HEK293T NPYLR7/Galpha15, GCaMP6s calcium fluorescence; activation, % at 10 µM; actives 0.15% (n = 270,000); in the data active means activation above about 40%;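 further: 0% = vehicle and 100% = reference agonist at the receptor; some compounds past the cut are filed as inactive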
NPYLR7 agonist max-min: second read-out of NPYLR7 agonist, no call of its own (marks repeat the call); activation, %; measured here: Max-Min RFU normalised activation; some inactives read as strong as hits;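 span of the calcium signal over five minutes; 0% = vehicle and 100% = native peptide agonist; compound fluorescence can raise it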
An asterisk follows results filed as active.

For COCCNC(=O)c1ccc(OC2CCN(C(=O)c3ccoc3)CC2)c(Cl)c1 the results were NPYLR7 agonist 2 and NPYLR7 agonist max-min -1.
`CC(C)N(CC(=O)N1c2ccccc2-n2cccc2C1c1ccc(F)cc1)C(=O)COc1ccc(Cl)cc1` (stereo not drawn) gave NPYLR7 agonist -4 and NPYLR7 agonist max-min 7.
Screening CCOc1ccc(OC(C)(C)C(=O)Nc2cccc(NC(C)=O)c2)cc1 returned NPYLR7 agonist 7 and NPYLR7 agonist max-min 1.
CCN(CC)C(=O)c1ccc(Cn2cc(Cl)cn2)o1 was read as NPYLR7 agonist 0 and NPYLR7 agonist max-min -4.
COC(=O)c1cc2n(n1)CCN(C(=O)c1cc(C)n3nc(C)cc3n1)C2 was read as NPYLR7 agonist -3 and NPYLR7 agonist max-min -6.
COc1ccc2[nH]c(=O)c(CN3CCC(NS(C)(=O)=O)CC3)cc2c1 was read as NPYLR7 agonist 4 and NPYLR7 agonist max-min 4.
CCCC(=O)Nc1ccc(S(=O)(=O)NCCn2nc(-c3cccnc3)ccc2=O)cc1 was read as NPYLR7 agonist 15 and NPYLR7 agonist max-min 9.
For COc1ccc(C(N)=O)cc1NS(=O)(=O)c1ccc(F)cc1Cl the results were NPYLR7 agonist 6 and NPYLR7 agonist max-min 3.
`CC(=O)N(CCCN(C)C)c1nc2ccc(F)cc2s1` gave NPYLR7 agonist 5 and NPYLR7 agonist max-min 3.
CC(C)CN1N=C(C(=O)O)CCC1=O was read as NPYLR7 agonist 2 and NPYLR7 agonist max-min 3.
`COc1ccc2c(c1)CN(Cc1ccccc1)C(=O)CCN2CC(O)C(C)(C)C` (stereo not drawn) gave NPYLR7 agonist 3 and NPYLR7 agonist max-min 0.
Screening CCCN(CC(=O)N1CC(=O)N(c2cccc(C)c2)C1)C(=O)C(CC)c1ccccc1 (stereo not drawn) returned NPYLR7 agonist -2 and NPYLR7 agonist max-min 4.
Screening CCN(CC)CCNc1nc(/C=C/c2ccc(Cl)cc2)nc2cc3ccccc3cc12 returned NPYLR7 agonist 24 and NPYLR7 agonist max-min 12.
`CCOC(=O)c1nn(-c2cccc(Cl)c2)c2nc(-c3cccs3)c(C#N)c(=O)n12` gave NPYLR7 agonist -5 and NPYLR7 agonist max-min -6.
O=C1NC(=Nc2ccccc2)S/C1=C\c1ccccc1OCc1ccccc1Cl was read as NPYLR7 agonist -6 and NPYLR7 agonist max-min -13.
`COc1cc(Cl)c(NC(=O)c2nc3nccc(C)n3n2)cc1OC` gave NPYLR7 agonist 5 and NPYLR7 agonist max-min 1.
Cc1nn(C(C)C)c(C)c1NC(=O)N(CCC#N)C(C)C was read as NPYLR7 agonist 7 and NPYLR7 agonist max-min 4.
For CCN(C(=O)CSc1nncn1-c1ccccc1)c1ccc(F)cc1 the results were NPYLR7 agonist 12 and NPYLR7 agonist max-min 3.
For CN1CCOC(C(=O)NC2CCN(c3c(F)cccc3F)C2)C1 (stereo not drawn) the results were NPYLR7 agonist 10 and NPYLR7 agonist max-min 3.
For CN(C)C(=O)N1C[C@@H](CO)[C@@H]2Oc3ccccc3[C@@H]21 the results were NPYLR7 agonist 4 and NPYLR7 agonist max-min 9.
CCOc1ccccc1C(=O)NCCc1csc2nc(-c3cccs3)nn12 was read as NPYLR7 agonist 8 and NPYLR7 agonist max-min 7.
`Nc1nc(-c2ccc(-c3ccccc3CO)cc2)cs1` gave NPYLR7 agonist 2 and NPYLR7 agonist max-min -6.
Screening O=C(N=Nc1c(O)[nH]c2ccc(Br)cc12)c1n[nH]c2c1CCC2 returned NPYLR7 agonist -1 and NPYLR7 agonist max-min -9.
For O=c1cc(NCCCN2CCN(Cc3ccccc3)CC2)c2ccccc2o1 the results were NPYLR7 agonist 18 and NPYLR7 agonist max-min 12.
Screening CNC(=O)C1(C)CCN1C(=O)c1ccccc1CCc1ccccc1 (stereo not drawn) returned NPYLR7 agonist 0 and NPYLR7 agonist max-min 0.
Screening COc1ccc(C(CC(=O)N2CCN(c3cccc(Cl)c3)CC2)c2cn(C)c3ccccc23)cc1 (stereo not drawn) returned NPYLR7 agonist 20 and NPYLR7 agonist max-min 29.
For COCCNC(=O)C(C1CCCC1)N1CCN(C(=O)C2CCC2)CC1 (stereo not drawn) the results were NPYLR7 agonist -8 and NPYLR7 agonist max-min -5.
For COc1ccccc1OC1CN(C(=O)CCc2ccc(O)cc2)C1 the results were NPYLR7 agonist 8 and NPYLR7 agonist max-min 4.
Screening C/C(=C\COc1cc(=O)[nH]c2ccccc12)CCC(O)C(C)(C)O (stereo not drawn) returned NPYLR7 agonist 2 and NPYLR7 agonist max-min 0.
O=C1C(C(c2ccco2)N2CCN(c3ccc(F)cc3)CC2)Sc2nc(-c3ccco3)nn21 (stereo not drawn) was read as NPYLR7 agonist 0 and NPYLR7 agonist max-min -2.
CC(C)CNC(=O)CNC(=O)Nc1ccc(F)cc1Br was read as NPYLR7 agonist 12 and NPYLR7 agonist max-min -4.
For CN(CCC(O)c1ccccc1)Cc1ccc(-c2csnn2)cc1 (stereo not drawn) the results were NPYLR7 agonist -1 and NPYLR7 agonist max-min -3.
For O=C1CC(Cn2c(=O)oc3ccccc32)c2cnn(Cc3cccnc3)c2N1 (stereo not drawn) the results were NPYLR7 agonist 30 and NPYLR7 agonist max-min 19.
CC(C)(C)c1ccc(S(=O)(=O)NC(=O)C2(C)CCN2C(=O)C2(c3ccc(Cl)cc3)CC2)cc1 (stereo not drawn) was read as NPYLR7 agonist 4 and NPYLR7 agonist max-min 4.
For Cc1nc2sccn2c1C(=O)N1[C@H]2CCNC[C@@H]1CC2 the results were NPYLR7 agonist 2 and NPYLR7 agonist max-min 0.
`CCCCSc1nc2c(c(=O)n1-c1ccc(OC)c(OC)c1)SCC2` gave NPYLR7 agonist -6 and NPYLR7 agonist max-min -9.
For O=C(CC1NCCNC1=O)OC1CCCCC1 (stereo not drawn) the results were NPYLR7 agonist -3 and NPYLR7 agonist max-min -4.
Cc1ncc(CN2CCOC(CCCc3ccccc3)C2)n1C (stereo not drawn) was read as NPYLR7 agonist 4 and NPYLR7 agonist max-min -1.
Screening CN(C)C(=O)CN1CCN(C(=O)CN2CCN(C(c3ccccc3)c3ccccc3)CC2)CC1 returned NPYLR7 agonist 1 and NPYLR7 agonist max-min 1.
Screening COc1cccc(C2c3[nH]c4ccccc4c3CCN2Cc2nccs2)c1OC (stereo not drawn) returned NPYLR7 agonist 13 and NPYLR7 agonist max-min 7.

Not a retest: entries from further up.
For O=c1cc(NCCCN2CCN(Cc3ccccc3)CC2)c2ccccc2o1 the results were NPYLR7 agonist 18 and NPYLR7 agonist max-min 12.
Screening CNC(=O)C1(C)CCN1C(=O)c1ccccc1CCc1ccccc1 (stereo not drawn) returned NPYLR7 agonist 0 and NPYLR7 agonist max-min 0.
Screening COc1ccc(C(CC(=O)N2CCN(c3cccc(Cl)c3)CC2)c2cn(C)c3ccccc23)cc1 (stereo not drawn) returned NPYLR7 agonist 20 and NPYLR7 agonist max-min 29.
For COCCNC(=O)C(C1CCCC1)N1CCN(C(=O)C2CCC2)CC1 (stereo not drawn) the results were NPYLR7 agonist -8 and NPYLR7 agonist max-min -5.
For COc1ccccc1OC1CN(C(=O)CCc2ccc(O)cc2)C1 the results were NPYLR7 agonist 8 and NPYLR7 agonist max-min 4.
Screening C/C(=C\COc1cc(=O)[nH]c2ccccc12)CCC(O)C(C)(C)O (stereo not drawn) returned NPYLR7 agonist 2 and NPYLR7 agonist max-min 0.
O=C1C(C(c2ccco2)N2CCN(c3ccc(F)cc3)CC2)Sc2nc(-c3ccco3)nn21 (stereo not drawn) was read as NPYLR7 agonist 0 and NPYLR7 agonist max-min -2.
CC(C)CNC(=O)CNC(=O)Nc1ccc(F)cc1Br was read as NPYLR7 agonist 12 and NPYLR7 agonist max-min -4.
For CN(CCC(O)c1ccccc1)Cc1ccc(-c2csnn2)cc1 (stereo not drawn) the results were NPYLR7 agonist -1 and NPYLR7 agonist max-min -3.
For O=C1CC(Cn2c(=O)oc3ccccc32)c2cnn(Cc3cccnc3)c2N1 (stereo not drawn) the results were NPYLR7 agonist 30 and NPYLR7 agonist max-min 19.
CC(C)(C)c1ccc(S(=O)(=O)NC(=O)C2(C)CCN2C(=O)C2(c3ccc(Cl)cc3)CC2)cc1 (stereo not drawn) was read as NPYLR7 agonist 4 and NPYLR7 agonist max-min 4.
For Cc1nc2sccn2c1C(=O)N1[C@H]2CCNC[C@@H]1CC2 the results were NPYLR7 agonist 2 and NPYLR7 agonist max-min 0.

(continued)
Cc1ccc(Cc2nsc(N3CCN(C(=O)Nc4ccc(F)cc4F)C(C)C3)n2)cc1 (stereo not drawn) was read as NPYLR7 agonist -11 and NPYLR7 agonist max-min -5.
`O=C(NCc1ccc(F)cc1C(F)(F)F)c1ncoc1C1CCCO1` (stereo not drawn) gave NPYLR7 agonist 2 and NPYLR7 agonist max-min 1.
For O=[N+]([O-])c1ccc(-c2nc(-c3ccccc3)c3cc([N+](=O)[O-])ccc3n2)cc1 the results were NPYLR7 agonist 18 and NPYLR7 agonist max-min 14.
`CCc1nc2n(n1)C(=O)C(C(c1ccccc1Cl)N1CCN(CCO)CC1)S2` (stereo not drawn) gave NPYLR7 agonist -6 and NPYLR7 agonist max-min -11.
Cc1ccc(-c2cc(NS(=O)(=O)c3cnc[nH]3)n(C3CCS(=O)(=O)C3)n2)cc1 (stereo not drawn) was read as NPYLR7 agonist 0 and NPYLR7 agonist max-min -1.
Screening CCC(CC)C(=O)Nc1nc(OCC(F)(F)F)cnc1-c1ccc(Cl)cc1Cl returned NPYLR7 agonist -7 and NPYLR7 agonist max-min -12.
For O=C(CNC(=O)C1CCN(S(=O)(=O)c2ccc3c(c2)CCCC3)CC1)NC1CC1 the results were NPYLR7 agonist 0 and NPYLR7 agonist max-min -6.
CC(=NNC(=O)CCn1c2ccccc2c2ccccc21)c1ccncc1 was read as NPYLR7 agonist 1 and NPYLR7 agonist max-min 3.
CC(OC(=O)c1cc2sc3ccccc3c2s1)C(=O)N1CCNC1=O (stereo not drawn) was read as NPYLR7 agonist 5 and NPYLR7 agonist max-min 3.
`Cc1ccc(-c2nnc3c4ccccc4c(C)nn23)cc1S(N)(=O)=O` gave NPYLR7 agonist -19 and NPYLR7 agonist max-min -25.
Screening CCc1cc(N2CCCC(C(N)=O)C2)nc(N2CCOCC2)n1 (stereo not drawn) returned NPYLR7 agonist 7 and NPYLR7 agonist max-min 1.
For CCN(CC)C(=O)C1(NC(=O)Nc2nc(C)c(C)s2)CCCCC1 the results were NPYLR7 agonist 5 and NPYLR7 agonist max-min 2.
COC(=O)c1ccc(NC(=O)c2cc(=O)c(OCc3cccc(OC)c3)c[nH]2)cc1 was read as NPYLR7 agonist -2 and NPYLR7 agonist max-min -2.
CS(=O)(=O)c1ccc(-n2ncc3c2CCNC3)cc1 was read as NPYLR7 agonist 11 and NPYLR7 agonist max-min 6.
`CCN(C(C)=O)C1CCN(c2nc(C)nc3sccc23)C1` (stereo not drawn) gave NPYLR7 agonist 1 and NPYLR7 agonist max-min 0.
`CN1CCN(C(=O)c2cc3c([nH]c2=O)CCCC3)CC1C(=O)O` (stereo not drawn) gave NPYLR7 agonist -2 and NPYLR7 agonist max-min -2.
CC(C)(C)C(=O)Nc1nnc(-c2ccc3c(c2)CCCC3)o1 was read as NPYLR7 agonist -3 and NPYLR7 agonist max-min -4.
`CC1CN(c2ncnc3nc[nH]c23)CC(C)O1` (stereo not drawn) gave NPYLR7 agonist 0 and NPYLR7 agonist max-min 3.
For COCC(=O)Nc1cc(-c2cn3nc(OC)ccc3n2)ccc1C the results were NPYLR7 agonist -7 and NPYLR7 agonist max-min -12.
Screening CN(C)CCN(Cc1ccccc1F)S(=O)(=O)N1CCCCCC1 returned NPYLR7 agonist 2 and NPYLR7 agonist max-min 4.
For O=C(COc1cccc(Cl)c1)Nc1cccc(-n2cc[nH]c2=O)c1 the results were NPYLR7 agonist -3 and NPYLR7 agonist max-min -3.
Screening Cc1cc(C)c2[nH]c(C(=O)NCC3CC(Cc4ccc(F)cc4)=NO3)c(C)c2c1 (stereo not drawn) returned NPYLR7 agonist 4 and NPYLR7 agonist max-min 1.
CC(C)c1cncnc1N1CCOC(c2ccc(Cl)cc2)C1 (stereo not drawn) was read as NPYLR7 agonist 4 and NPYLR7 agonist max-min 1.
For CCOC(=O)c1oc2cccc(O)c2c1CN(Cc1ccccc1)C(C)=O the results were NPYLR7 agonist -2 and NPYLR7 agonist max-min -3.
Screening Cc1csc(SCC(=O)N2CCc3c(cc(-c4cccc(Cl)c4)c(=O)n3CC3CC3)C2)n1 returned NPYLR7 agonist 12 and NPYLR7 agonist max-min -3.
For Cc1nc(NC(Cn2cccn2)c2ccccc2)c2cnn(C)c2n1 (stereo not drawn) the results were NPYLR7 agonist -2 and NPYLR7 agonist max-min -4.
`CCCN(CC(=O)N(CCc1c[nH]c2ccccc12)Cc1ccc(Cl)c(Cl)c1)C(=O)c1cccc([N+](=O)[O-])c1` gave NPYLR7 agonist 9 and NPYLR7 agonist max-min 23.
For CCOC(=O)N1CCN(C(=O)c2cc3n(n2)CCN(CC2CC2)C3=O)CC1 the results were NPYLR7 agonist 2 and NPYLR7 agonist max-min -2.
`CCOc1ccc(-c2csc(-n3nc(C)cc3NC(=O)Cc3cccs3)n2)cc1` gave NPYLR7 agonist -7 and NPYLR7 agonist max-min -8.
For Cc1ccc(C)c(NC(=O)CSc2nnc(Cc3ccccc3)c(=O)[nH]2)c1 the results were NPYLR7 agonist -6 and NPYLR7 agonist max-min -7.
For COc1ccc2nc(-c3ccc(C)c(NS(=O)(=O)c4ccc(F)c(Cl)c4)c3)cn2n1 the results were NPYLR7 agonist -5 and NPYLR7 agonist max-min -8.
Screening O=C(NCC(c1cccnc1)N1CCc2ccccc2C1)c1cccc([N+](=O)[O-])c1 (stereo not drawn) returned NPYLR7 agonist 1 and NPYLR7 agonist max-min -3.
`C=CCNC(=O)NC(=O)CN1CCN(S(=O)(=O)c2cccs2)CC1` gave NPYLR7 agonist 6 and NPYLR7 agonist max-min 12.
Screening COCCCNC(=O)c1sc2cc(OC)c(OC)cc2c1Cl returned NPYLR7 agonist -2 and NPYLR7 agonist max-min -5.
COC(=O)c1ccc(C(=O)NCC2(c3ccc(Cl)cc3)CCOCC2)cc1 was read as NPYLR7 agonist 2 and NPYLR7 agonist max-min -2.

This is a subset; count on the stated rates, not on these rows.
